ugtP null kill – growth inhibition of S. aureus ugtP deletion strain; S. aureus RN4220 ugtP deletion, OD600 growth, 16 h; some inactives read as strong as hits; growth inhibition, % (no concentration beside the values); actives 0.54% (n = 330,000); AID 1259309;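 active = z-score under -3 and OD600 up to 0.15 on both plates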;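 also: plate controls were untreated wells for no effect and antibiotic for full effect; wells of about 80 µL received 100 nL stock; the first replicate is given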
PrP 5UTR inh – inhibition of PrP 5' UTR reporter expression; cell-based PrP 5' UTR mRNA reporter, plate reader; inhibition, % (test concentration not listed); actives 0.35% (n = 340,000); AID 488862;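 active = every replicate at 50% or more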;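 also: 0 = median of the neutral control wells; tested in H4 reporter cells; numbers are from one replicate; inactives centre near -14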
RN4220 kill – kills Staphylococcus aureus RN4220; inhibition, % (test concentration not listed); AID 1259311; S. aureus RN4220 growth, OD600, 16 h; actives 0.33% (n = 330,000);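 active = z-score of -3 or lower and OD600 up to 0.18 on both plates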;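 also: plate controls were untreated cells for no effect and reference antibiotic for full effect; stock transfer was 100 nL into about 80 µL; one replicate is shown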
BJeLR lethal – kills HRASV12-expressing BJeLR cells; AID 1554; BJeLR (HRASV12) viability, CellTiter-Glo ATP luminescence, 48 h; reference of the scale not given here; inhibition, % (no concentration beside the values); actives 0.17% (n = 300,000);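 active = replicate mean above 50%; inconclusive = above 50% but judged a plate artefact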;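 also: 50 nL library stock added to about 25 µL; numbers are from one replicate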
Mtb hypoxia rep – reduces hypoxia-regulated biosensor signal in M. tuberculosis; M. tuberculosis hypoxia-regulated fluorescent reporter, fluorescence; fluorescence inhibition, % (test concentration not listed); actives 0.1% (n = 300,000); AID 1159583;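 active = 35 to 45% if threefold the growth effect, above 45% if 1.5-fold the growth effect; inactive = the rest, general growth blockers included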;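 also: wells of about 50 µL received 100 nL stock; 0% = vehicle wells and 100% = reference inhibitor wells; whole bacteria with a GFP reporter of the hypoxia response; strong numbers were not always called active; many hits fall short of the cut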
Bead autofluor – flagged as autofluorescent in microsphere protease counterscreen; compound autofluorescence counterscreen, microsphere flow cytometry; active compounds read high; fluorescence intensity (concentration not given with the values); actives 3.1% (n = 360,000); AID 624483;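 active = at least 3 SD above the mean of all compounds, about 16000 in these data; inconclusive = too few beads counted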;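 also: 100 nL of 1 mM stock went into each well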
Mtb hypoxia rep growth – second read-out of Mtb hypoxia rep, no call of its own (marks repeat the call); growth inhibition, %; measured here: M. tuberculosis growth (absorbance);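 0% = vehicle and 100% = reference antibiotic; read after six days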
The depositor's hits bear a star; ? = inconclusive; nt = no result given; & = joins results of further samples.

A first look:
Compound	ugtP null kill	PrP 5UTR inh	RN4220 kill	BJeLR lethal	Mtb hypoxia rep	Mtb hypoxia rep growth	Bead autofluor
O=[N+]([O-])c1ccc(C2C3C(c4ccccc4)=NC4(CCCCC4)N32)cc1 (stereo unspecified)	54	-18	-3.1	3	5	10	7680
Cc1onc(C(=O)NN)c1C(=O)N1CCN(C(c2ccccc2)c2ccccc2)CC1	2	-19	2.2	-4	2	1	2176

All compounds of this part, from the first entry:
Compound	ugtP null kill	PrP 5UTR inh	RN4220 kill	BJeLR lethal	Mtb hypoxia rep	Mtb hypoxia rep growth	Bead autofluor
O=[N+]([O-])c1ccc(C2C3C(c4ccccc4)=NC4(CCCCC4)N32)cc1 (stereo unspecified)	54	-18	-3.1	3	5	10	7680
Cc1onc(C(=O)NN)c1C(=O)N1CCN(C(c2ccccc2)c2ccccc2)CC1	2	-19	2.2	-4	2	1	2176
CCOC(=O)c1c(-c2cccs2)csc1NC(=O)CCCC(=O)O	-2	nt	10.0	-2	3	5	9976
CCC(=O)OCC(=O)Nc1ncc(C(F)(F)F)cc1Cl	-6	-27	0.6	-1	6	-8	3987
CC(N=c1ccccn1C(=O)Nc1cccc(C(F)(F)F)c1)c1ccco1 (stereo unspecified)	-13	-29	-4.4	9	6	6	8984
CN(C(=O)Cn1cc(C(F)(F)F)cc(Cl)c1=O)C1CCS(=O)(=O)C1 (stereo unspecified)	8	-6	6.5	-11	5	6	5181
CC(C)(C)c1ccc(OCC(O)CSc2ncn[nH]2)cc1 (stereo unspecified)	12	-40	8.5	0	11	-1	4564
COCCSc1ccccc1C(=O)Nc1nncs1	0	-4	1.3	-7	-3	7	5655
CS(=O)(=O)c1ccc(Cl)c(NC(=O)CCc2ccccc2)c1	6	-77	3.0	5	8	0	4068
COc1ccc(C(C(=O)NCCC(C)C)N(CCN2CCOCC2)C(=O)Cn2nnc3ccccc32)c(OC)c1 (stereo unspecified)	-2	-24	0.6	-3	2	1	4523
Cc1cc(C)n(-c2nc3ccccc3nc2N2CCOCC2)n1	-6	-17	6.1	-7	2	3	5387
CC(C)(CO)NCc1cccc(OCc2ccc(Cl)cc2)c1	1	9	2.4	3	13	9	1895
Cc1cc(C)cc(OC(=O)CN2C(=O)c3ccccc3C2=O)c1	8	-30	4.9	1	12	2	nt
Nc1ncn(C(=O)c2ccco2)n1	4	2	1.7	-5	3	-2	3112
CO/N=C(/CS(=O)(=O)c1ccc(C)cc1)c1ccc(OC)cc1	nt	-16	nt	-1	nt	nt	2687
CCOC(=O)N1CCN(Cc2nc3ccc([N+](=O)[O-])cc3c(=O)n2-c2cccc(OC)c2)CC1	-2	nt	2.0	1	3	-7	4188
Cc1ccc2cc3cc(C(=O)NCCCN4CCCC4)oc3nc2c1	1	-24	-0.5	-9	8	1	5325
CSc1ccc(S(=O)(=O)N2CCC(C(=O)NCCN3CCOCC3)CC2)cc1	3	2	3.0	-14	9	11	3897
Nc1nnc(CC(=O)N/N=C/c2ccc([N+](=O)[O-])cc2)s1	nt	-2	nt	1	nt	nt	5934
Cc1cccc(C)c1NC(=S)N/N=C/c1ccc(C(=O)O)cc1	nt	-20	nt	3	nt	nt	4748
COC(=O)c1c(SCC(=O)NC2CCCCC2)[nH]c2ccccc2c1=O	12	-3	9.2	3	4	8	4991
CCn1c(C)cc(/C=C2/NC(=O)N(Cc3ccccc3F)C2=O)c1C	4	-21	0.7	-1	3	-1	2351
CC(=NNC(=O)c1cccc(O)c1)c1ccc(NC(=O)Cc2ccccc2)cc1	-6	nt	-1.6	nt	-2	8	nt
CCNc1nnc(SCC(=O)N2c3ccccc3NC(=O)CC2C)s1 (stereo unspecified)	1	-9	3.3	nt	4	5	5399
Cc1nn(-c2ccccc2)c(Cl)c1C(=O)N1CCN(C)CC1	7	-19	5.3	nt	8	-2	3137
Cc1ccc(S(=O)(=O)Nc2nonc2C)cc1	12	-14	3.7	0	6	5	8842
CC1CCCC(C)N1C(=S)SCC(=O)O (stereo unspecified)	11	-13	3.8	1	3	7	4490
CC(c1ccc(F)cc1)n1cc(S(=O)(=O)N2CCCC2)ccc1=O (stereo unspecified)	5	-13	5.2	nt	9	3	3634
Cc1noc(C)c1CSCC(=O)Nc1nc2c(F)cc(F)cc2s1	6	-28	8.6	nt	8	-4	6226
Cc1sc2nc(CSc3n[nH]c(N)n3)[nH]c(=O)c2c1C	1	0	3.3	4	5	11	4257
CC1CCC2(CC1)NC(=O)N(CC(=O)Nc1cccc(S(=O)(=O)N3CCCC3)c1)C2=O (stereo unspecified)	-2	3	-0.4	nt	0	5	?
CCS(=O)(=O)N1CCCC(C(=O)N2CCc3ccccc3C2)C1 (stereo unspecified)	0	-17	-9.9	-3	-2	-7	2553
COC(=O)C(O)(CC(=O)Nc1cccc(SC)c1)C(F)(F)F (stereo unspecified)	0	-6	1.6	9	-5	1	5673
CC(=NNC(=O)c1c(Cl)c(C)nn1C)c1ccc(NC(=O)c2ccncc2)cc1	-3	nt	0.7	nt	-10	-2	nt
CC(CO)NCC12CC3CC(CC(C3)C1)C2 (stereo unspecified)	4	-82	4.6	2	15	5	4757
CN1CCN(S(=O)(=O)c2ccc3c(c2)NC(=O)C2CCCN32)CC1 (stereo unspecified)	7	-26	-1.7	8	-3	-12	11777
Fc1ccccc1CNC1CN2CCC1CC2 (stereo unspecified)	3	-17	3.0	-6	-7	-12	4493
Cc1cc(C(=O)OCC(=O)N2CC(=O)Nc3ccccc32)c(C)n1-c1ccc(F)cc1	2	4	1.0	-11	9	6	11004
CC(CC(=O)Nc1ccc(Br)cc1)=NNC(=O)c1cccc(O)c1	5	nt	2.1	nt	0	-7	nt
NCCCC[C@@H](C(=O)NCCCCCCCCCCC(=O)N1CCNCC1)n1cc(CCO)nn1	nt	-37	nt	-11	nt	nt	4258
Cc1ccccc1OCC(=O)Nc1sc(C(=O)Nc2cccc(C)c2C)c(C)c1C#N	-1	-7	11	2	9	5	15861
C#Cc1ccc(C2C=C(C(=O)NCc3ccccc3)OC(OCc3ccc(CO)cc3)C2)cc1 (stereo unspecified)	-1&1	nt	-1.6&-3.9	nt	1&12	-3&8	nt
O=C1C2C(C(=O)N1N=Cc1cccc([N+](=O)[O-])c1)C1C=CC2C12CC2 (stereo unspecified)	2	nt	2.9	nt	4	6	nt
CN1CCN(c2ccc(/C=C3\C(=O)NC(=S)N(c4cccc(Br)c4)C3=O)o2)CC1	-2	-9	3.3	4	16	5	7169
CCCCCC(=O)Nc1cccc(C2=NOC3(C2)CC(C(N)=O)N(C(=O)COc2ccc(Cl)cc2)C3)c1 (stereo unspecified)	-9	nt	-0.6	nt	10	9	nt
CCOC(=O)C1=CN(Cc2cccc(-c3cccnc3)c2)S(=O)(=O)N(C)C1C (stereo unspecified)	0	-11	-1.7	nt	-8	0	3581
Cc1cc(=O)oc(C)c1C(=O)NCC1CCCO1 (stereo unspecified)	6	-26	0.0	3	1	-11	9125
Cc1ccc(S[C@@H](CCN2CC[C@H](NC(=O)OCc3ccccc3)CCC2=O)c2ccccc2)cc1	2	-23	-16	9	12	4	4011
COc1ccc(C(=O)N2CCCCCC2)cc1S(=O)(=O)N1CCOCC1	3	-4	-2.1	-1	-3	11	5463
Cc1ccc(OCC(=O)N2CCN(C(=O)c3ccco3)CC2)cc1	1	-35	3.5	0	12	13	3896
CCN(CC)S(=O)(=O)c1ccc(N2CCCC2)c(NS(=O)(=O)c2ccc(OC)cc2)c1	-3	-10	5.3	1	18	11	2207
CC[C@]12c3[nH]c4ccc(OC)cc4c3CCN1C(=O)C(CC(=O)NCC13CC4CC(CC(C4)C1)C3)C[C@@H]2C(=O)N1CCN(C(=O)C2CC2)CC1 (stereo partly specified)	-5	-21	-2.9	nt	-5	5	3334
O=C(NCc1ccco1)c1ccccc1-c1nc(-c2ccc(F)cc2)no1	10	-28	2.6	-4	5	-1	4038
CC(C)(O)C#Cc1ccc(C(=O)N2CCN(C(=O)c3ccco3)CC2)cc1	-7	-16	4.0	1	6	11	9068
Cc1ccsc1C=Nn1c(-c2ccncc2)n[nH]c1=S	-1	nt	7.1	nt	7	3	nt
CCOC(=O)C1=C(CSc2n[nH]c(N)n2)NC(=O)NC1C (stereo unspecified)	5	-24	3.7	2	0	-7	9599
Cc1ccc(S(=O)(=O)NCC(=O)NCCc2c[nH]c3ccccc23)cc1C	7	-13	3.4	4	3	14	5791
O=C(CCC(=O)N(CC(=O)NC1CCCC1)C1CCCCC1)Nc1ccccn1	0	-15	3.6	1	3	6	2427
Cc1cc(NC(=O)CCC2COc3ccccc3O2)no1 (stereo unspecified)	4	-19	0.9	-8	nt	nt	4388
COc1ccc(CCN2CC(C(=O)N3CCN(C(C)=O)CC3)CCC2=O)cc1 (stereo unspecified)	-8	-2	-6.8	-4	-8	0	4098

Next section.
Compound	ugtP null kill	PrP 5UTR inh	RN4220 kill	BJeLR lethal	Mtb hypoxia rep	Mtb hypoxia rep growth	Bead autofluor
COc1cc(OC)cc(C(=O)NCC2CCCN(C(=O)c3oc(C)cc3C)C2)c1 (stereo unspecified)	9	-13	-6.2	-4	-14	-23	4780
COc1ccc(/C=N/NC(=O)CC(=O)NCc2cccnc2)c(OC)c1	nt	-57	nt	13	nt	nt	9406
COc1cc(NC(=O)CN(C)S(=O)(=O)c2ccc(-c3ccc(=O)[nH]n3)s2)cc(OC)c1	5	3	3.6	3	2	6	5442
Cc1cccn2c(/C=N/OCc3cccc(F)c3)c(-c3ccc(Cl)cc3)nc12	nt	-4	nt	-4	nt	nt	5032
COc1cc(C(=O)N[C@@H](C)C(=O)N2CCC3(CC2)NCCc2[nH]cnc23)cc(OC)c1OC	4	-28	2.1	4	4	8	5767
Cc1ccc(C(=O)NNC(=O)OC(C)(C)C)c(Cl)c1	0	-19	7.8	2	10	2	3247
Cc1occc1-c1nnc(SCC(=O)NCCc2ccccc2)n1C(C)c1ccccc1 (stereo unspecified)	0	5	2.8	-1	3	6	4216
O=C(NCc1ccccc1)N(Cc1nc2ccccc2c(=O)[nH]1)C1CCCC1	6	-20	24	nt	nt	nt	2337
CCOC(=O)c1cccnc1SCC(=O)NC(C)CC (stereo unspecified)	12	nt	3.7	-4	9	3	9243
FC(F)(F)c1cccc(Cn2nnnc2-c2cccc(C(F)(F)F)c2)c1	-12	-21	4.2	-5	5	-4	24655*
CC(C)(C)c1nnc2sc(SCCN3C(=O)c4ccccc4C3=O)nn2c1=O	2	-7	1.4	10	-5	1	11650
O=C(O)Cn1cc(C=NNC(=O)c2cc3cc(Br)ccc3o2)c2ccccc21	3	nt	0.6	nt	7	4	nt
COc1ccc(C)cc1NC(=O)CSc1cccc[n+]1[O-]	1	-7	3.4	nt	-6	-19	3751
Cc1csc2ncc(C(=O)N3c4ccccc4CC3C)c(=O)n12 (stereo unspecified)	-6	-15	-10	-6	6	14	4519
Nc1ccc(C(=O)N2N=C(c3ccc(F)cc3)CC2(O)C(F)(F)F)cc1 (stereo unspecified)	7	-12	5.2	-4	4	0	3352
CC(C)CC1NC(=S)N(C2CCCCC2)C1=O (stereo unspecified)	36	1	2.4	-1	nt	nt	4802
COc1ccc(Cc2nc(N)nc(N)n2)cc1	2	-13	-16	-2	nt	nt	2985
CC(/C=C/c1ccccc1F)=N\NC(=O)c1cccc(F)c1	nt	-50	nt	5	nt	nt	4723
COCCCNC(=S)N/N=C/c1ccc(OC)c(Br)c1	nt	-16	nt	-7	nt	nt	5818
CC(C)CNS(=O)(=O)c1ccc(CCC(=O)NC2CCCC2)cc1	1	-14	6.0	0	13	4	4801
O=c1oc(/C=C/c2ccco2)nc2sc3c(c12)CCC3	nt	-42	nt	4	nt	nt	2693
Cc1ccc(OCc2ccc(C(=O)Nc3nccs3)o2)cc1C	-17	-15	2.1	2	nt	nt	2783
O=C1N(Cc2cccc(Cl)c2)C[C@@H]2C[C@@H](c3ccccn3)N3CCC[C@@]123	3	-19	2.8	-7	9	6	5456
